From PubChem
VACV E9 pol inh: vaccinia E9 polymerase processive synthesis inhibition; in vitro processive DNA synthesis, absorbance read-out; stronger effect = lower value; some inactives read as strong as hits; normalized absorbance, % (no concentration beside the values); 0.94% of 46,000 active; AID 493162;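 active = replicate mean up to 90% and picked by the depositor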;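 also: 100% = median of the test wells of a plate; 100 nL library stock went into each well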
* = called active by the depositor.

SMILES	VACV E9 pol inh
COc1ccccc1NC1CCS(=O)(=O)C1 (stereo unspecified)	92
Cc1cc(=O)oc2cc(OCC(=O)NCc3cccnc3)ccc12	100
O=C(O)c1cccc(O)c1	100
FC(F)=C(F)CCSc1ncn[nH]1	108
N#CC(c1ccccc1Cl)N1CCOCC1 (stereo unspecified)	93
Fc1ccc2[nH]cc(CCCN3CCN(c4nc5cc(Cl)ccc5s4)CC3)c2c1	100
CC1OC(NC(=O)c2ccccc2F)C(NC(=O)c2ccccc2F)OC1C (stereo unspecified)	100
O=C(COc1ccc(-c2ccccc2)cc1)NCCN1CCOCC1	99
Cc1sc2ncnc(Oc3cccc(C(F)(F)F)c3)c2c1-c1ccccc1	99
O=C(c1cc(C(F)(F)F)cc(C(F)(F)F)c1)N1CCC(O)(c2ccc(Cl)cc2)CC1	108
Cc1ccc(SCc2cccc(C(=O)N3CCN(c4ncccc4C(F)(F)F)CC3)c2)cc1	101
CCS(=O)(=O)N1CCCC(C(=O)NCc2cccnc2)C1 (stereo unspecified)	104
Cc1oc(S(=O)(=O)N2CCCC2)cc1C(=O)NCc1ccc2c(c1)OCO2	108
c1ccc2c(c1)COC(CN1CCCCC1)OC2	100
CCOC(=O)C1CCN(C(=O)CSc2ccc(Cl)cc2)CC1	76
CC(=O)N1CCc2cc3nc(C)cc(C)c3cc21	81
CCC1(C)OC(=O)N(CCc2c(C)[nH]c3ccccc23)C1(C)O (stereo unspecified)	99
CC(C(=O)NCc1ccc(Cl)cc1)n1cccc1C(=O)c1ccccc1 (stereo unspecified)	99
CCN(CC)CCn1cnc2ccccc21	104
O=S(=O)(c1ccc2c(c1)OCCO2)N1CC=C(c2ccccc2)CC1	96
OC12CCCCC1C(c1ccc(Cl)cc1Cl)NCC2 (stereo unspecified)	83
Cc1cccc(OCCBr)c1	102
Cc1ccccc1NC1CC(C)Nc2c(C)cccc21 (stereo unspecified)	100
Cc1cccc(CN2CCC(CNC(=O)NCc3noc4ccccc34)CC2)c1	99
NNC(=O)c1csc(COc2cc(Cl)cc(Cl)c2)n1	96
CC(C)CCN(C(=S)Nc1ccc(C(C)C)cc1)C1CCN(C(C)C)CC1	110
NS(=O)(=O)c1ccc(-n2cccc2/C=C2/C(=O)NN(c3ccccc3)C2=O)cc1	100
OCN1CCCC1	101
COC(=O)c1ccc(N)cc1O	101
Cc1ccc(N(CC(=O)NCc2ccco2)S(=O)(=O)c2ccc(C)cc2)cc1	101
Nc1nc(-c2ccccc2)cc(=S)s1	88
COc1cccc(OC)c1CN(C)C(=O)c1cnccc1C(F)(F)F	95
CC1(C)C(C=C(Cl)Cl)C1C(=O)N1CCOCC1 (stereo unspecified)	89
CCOC(=O)c1sc(NC(=O)COc2ccccc2)nc1-c1ccccc1	100
COC(=O)CSC1=C(C#N)C(=O)NC(/C=C/c2ccccc2)S1 (stereo unspecified)	94
Cc1nc2c(C(=O)NCCc3ccccc3Cl)c[nH]n2c(=O)c1Cl	101
ClC1=C(c2ccncc2)NC(c2ccccc2)=CS1	101
C=CCN1C(=O)/C(=C/c2c(Sc3ccccc3)nc3ccccn3c2=O)SC1=S	100
Cc1c(Br)c(C(F)(F)F)nn1CC(=O)N1CCOCC1	100
COc1ccc(OC)c(NC(=O)c2cccnc2)c1	100
COc1ccc(C2C(C(=O)N3CCCCC3)=C(C)NC3=C2C(=O)CCC3)cc1O (stereo unspecified)	98
NC(CC(=O)O)c1ccccc1C(F)(F)F (stereo unspecified)	99
CSC1=N/C(=C\c2ccc(Br)cc2)C(=O)S1	100
C/C=C1\C2C=C(C)CC1(N)c1ccc(=O)[nH]c1C2 (stereo unspecified)	100
COC(=O)c1ccc(NCC(=O)Nc2cc(C)cc(C)c2)cc1	102
CC(Cl)(Cl)/C(O)=C(\C#N)c1nnc2n1CCCCC2	101
CCOC(=O)c1cnn(CCOC(=O)c2cccs2)c1NC(=O)c1cccs1	103
Cc1cccc2cc(C(c3nnnn3C(C)(C)C)N(Cc3ccccc3)Cc3ccco3)c(=O)[nH]c12 (stereo unspecified)	97
O=C(O)CCc1nc2ccccc2[nH]c1=O	99
O=C(O)COCC(=O)Nc1ccc(Oc2cccc(C(F)(F)F)c2)nc1	100
Cc1c(N=c2scc(-c3ccccc3)n2-c2ccccc2)c(=O)n(-c2ccccc2)n1C	100
COc1cccc2cc(C(=O)NCCc3c(C)[nH]c4c(C)cccc34)c(=O)oc12	101
CC(C)C(C(=O)O)N1C(=O)c2ccccc2C1=O (stereo unspecified)	99
CC(COc1ccc(C(C)C)cc1)NC(=O)c1ccc(Br)o1 (stereo unspecified)	100
O=C(O)CSc1c2c(nc3cc(C(=O)NCc4cccs4)ccc13)CCCC2	104
Cc1ccc(-n2cc(-c3ccc4c(c3)OCO4)[nH]c2=S)c(C)c1	102
CCCN1C(=O)/C(=c2\sc3nc(=O)c(-c4ccccc4)nn3c2=O)c2ccccc21	100
NC(c1ccccc1)C(F)(F)C(=O)O (stereo unspecified)	96
CC(C)n1cc(C(=O)O)cn1	101
FC(F)(F)c1cnc(-c2cnoc2)c(Cl)c1	130
Going on with the list:
SMILES	VACV E9 pol inh
COC(CNC(=O)c1cc(Sc2nnc(C)s2)nc2ccccc12)OC	93
CC(C)N=Cc1ccc(-c2ccccc2)cc1	86
CC1SCC(=O)N(c2ccc(F)cc2F)C1=O (stereo unspecified)	105
COc1cccc(OC)c1C(=O)Nc1ccc(Br)cc1C	102
Cc1ccc(Nc2nc3ccccc3s2)cc1Cl	99
CN(C)CC(O)c1ccc2cc[nH]c2c1 (stereo unspecified)	101
Cc1cccc(-c2noc(CN(C(=O)/C=C/c3ccccc3Cl)C(C)C)n2)c1	101
CCOC(=O)C1=C(O)CCN(C)C1	100
CCCC[C@H]1C(=O)O[C@H](C)[C@H](NC(=O)c2cccc(NC=O)c2OC)C(=O)O[C@@H](C)[C@@H]1OC(=O)CC(C)C	101
O=C(N1CCOCC1)C12CC3CCC(CC(C3)C1)C2	90
CCC1(C)OC(c2ccc(Br)cc2)=Nc2ccccc21 (stereo unspecified)	99
Oc1c(C(c2ccc(F)cc2)N2CCCC2)ccc2cccnc12 (stereo unspecified)	99
Cc1nnc(Sc2cc(C(=O)NCCc3ccccc3)c3ccccc3n2)s1	98
CC(C)(C)c1ccc(-c2[nH]nc(NS(=O)(=O)c3ccccc3)c2Br)cc1	92
Cc1cc2nn(-c3ccccc3)nc2cc1NC(=O)c1cccs1	102
COC(=O)c1ccc(C(=O)Nc2ccc3sccc3c2)cc1	100
O=C(Cc1ccsc1)OC(C(=O)c1ccccc1)c1ccccc1 (stereo unspecified)	101
CCOC(=O)COc1ccc(C2=Nc3ccccc3NC(c3ccccc3)C2)cc1 (stereo unspecified)	95
Oc1cccc(N=Cc2c[nH]c3ccc(Br)cc23)c1	84
Cc1ccc(NC(=O)CSc2nnc3ccccn23)cc1	100
CCn1ncc(Cl)c(Cl)c1=O	100
CN1CCN(Cc2c3ccccc3cc3ccccc23)CC1	88
Cc1cc(C)nc(NC(=O)CSC(=S)N2CCOCC2)n1	100
CCCNC(=O)c1ccc2c(c1)ncn2-c1cc(OC)ccc1OC	106
Cc1cc(C)cc(Nc2cc(=O)oc3ccccc23)c1	100
CCN1CCN(C(=O)/C=C/c2cccs2)CC1	102
O=C(O)CCc1nnc2ccc(Cl)nn12	86
CC1CCCN(C(=O)COC(=O)c2ccccc2O)C1 (stereo unspecified)	103
CC1CC(NC(=S)NCc2csc3ccccc23)CC(C)(C)C1 (stereo unspecified)	96
O=C1C(Cc2ccc(F)cc2)Sc2nc3ccccc3n21 (stereo unspecified)	92
Cc1ccc(Cc2nnc(C(=O)NCc3ccccc3)o2)cc1	104
c1ccc(-c2nnc3n2C2(CCCC2)Cc2ccccc2-3)cc1	100
CCN(C(=O)CCn1c(=O)oc2ccccc21)c1ccccc1	101
CCCCn1c2ccccc2c2nnc(SCC(=O)N=C3NC(=O)CS3)nc21	101
C=CCSc1ncnc2c1sc1nc(CC)c3c(c12)CCCC3	100
CC1CCC(C(=O)NC(Cc2c[nH]c3ccccc23)C(=O)NCc2cccnc2)CC1 (stereo unspecified)	93
Cc1[nH]nc2nc(SCC(=O)NCCc3ccccc3)n(-c3ccccc3Cl)c(=N)c12	95
C=CCN(CC=C)S(=O)(=O)c1ccc(C(=O)Nc2ccccc2-c2nc3ccccc3[nH]2)cc1	99
COc1ccc(NC(=S)N2CCCC(c3ccccc3)=N2)cc1	98
COC(CNC(=O)c1coc2nc3ccccc3nc12)OC	91
NC(=O)c1cnn(-c2ccc3ccccc3c2)c1N	99
Cc1nn(Cc2ccc(F)cc2)c(C)c1NC(=O)c1cc(-c2ccc3c(c2)OCO3)on1	96
CC(C)(C)S(=O)(=O)/C(C#N)=C/Nc1ccccn1	106
Cc1ccc(S(=O)(=O)NC2=NCN(C3CCN(Cc4ccccc4)CC3)CN2)cc1	100
CCC(=O)NC(C)c1nc2ccccc2n1CC (stereo unspecified)	101
COc1cccc(NC(=S)/N=C(\N)Nc2nc(C)c3ccccc3n2)c1	100
CC(C)(C)c1ccc(NC(=O)/C=C/c2ccc(-c3cccs3)s2)cc1	96
CC(C)c1c(C#N)c(N)nc(SCC(=O)c2ccc(Cl)c(Cl)c2)c1C#N	100
CCSC1=N/C(=C\c2cc3c(cc2Br)OCO3)C(=O)S1	100
Nc1ncnc2c1ncn2C1OC(CO)[C@H](O)C1O (stereo partly specified)	100
CC(C)CCOC(=O)c1cc2cc(Br)ccc2oc1=O	100
COC(=O)c1ccc(Sc2ccc(Cl)cc2)c(N)c1	93
Oc1c(CN2CCCCC2)cc(Cl)c2cccnc12	98
COc1ccc(C(=O)c2ccc(OC)c(OC)c2)cc1OC	101
CCN(CC)CCC1S(=O)(=O)CC(c2ccccc2)CS1(=O)=O (stereo unspecified)	106
c1ccc2c(c1)oc1c(N3CCCCC3)ncnc12	89
O=C(O)c1ccc2[nH]c3c(c2c1)CCCC3	97
CCN1CCN(Cc2csc(C)c2C)CC1	91
O=C1c2ccccc2C(=O)N1CC12CC3CC(CC(C3)C1)C2	100
CCCCn1c(CCNC(=O)c2ccco2)nc2ccccc21	93
(listing goes on)
SMILES	VACV E9 pol inh
CCn1cc(C(=O)OCc2ccccc2)c(=O)c2ccc(C)nc21	102
COc1ccc(OC(=O)c2csc(Cc3c(Cl)cccc3Cl)n2)cc1	100
CCCN(Cc1cccs1)C(=O)NC12CC3CC(CC(C3)C1)C2	99
CC(C)(C)c1csc(-c2ccc(OC(F)(F)F)cc2)n1	101
CN(c1ccccc1)C(C(=O)NC1CCCC1)c1ccc(Cl)cc1 (stereo unspecified)	102
O=C(Cc1cccc2ccccc12)OCC(=O)c1ccc(Br)cc1	101
CCc1ccc(C(=O)c2cnc3cc4c(cc3c2N2CCCC2)OCO4)cc1	85
CC(NC(=O)C1C(=O)NC2(C)CC1c1ccccc1O2)c1ccccc1 (stereo unspecified)	104
Cc1ccc(-c2[nH]nc3nc(C(=O)O)cc(-c4cccc5ccccc45)c23)cc1	91
O=C(C1CCC(CNS(=O)(=O)c2ccccc2)CC1)N1CCCCC1 (stereo unspecified)	116
Cc1ccc(Nc2ncnc3c2cnn3-c2ccccc2)cc1	98
CN1CCN(c2c3c(nc4ccccc24)-c2ccccc2CC3)CC1	90

Random excerpt: two records from the list, in no set order.
SMILES	VACV E9 pol inh
O=C(C1CCC(CNS(=O)(=O)c2ccccc2)CC1)N1CCCCC1 (stereo unspecified)	116
CC(NC(=O)C1C(=O)NC2(C)CC1c1ccccc1O2)c1ccccc1 (stereo unspecified)	104

Continued.
SMILES	VACV E9 pol inh
CCCCC(=O)NCc1ccc2[nH]c(C)cc2c1	92
O=C1c2oc3ccccc3c(=O)c2C(c2cccc(Cl)c2)N1CCO (stereo unspecified)	101
O=C(C1=C(O)c2ccccc2S(=O)(=O)N1)c1ccc(Cl)s1	96
CCOC(=O)c1c[nH]c(=S)[nH]c1=O	96
CC(=O)Nc1ccc(C(=O)OCC(=O)N(C)C2CCCCC2)cc1	95
CSC1=C(C#N)C(c2ccccc2)CC(=O)N1 (stereo unspecified)	97
O=C1CCO1	100
CC(=O)Nc1sc(C)c(C)c1C#N	100
CN(C(=O)c1noc2c1CSc1ccccc1-2)c1cccc(C(F)(F)F)c1	104
N#CC(C(=O)Nc1cccc(C(F)(F)F)c1)C(=S)Nc1ccccc1Cl (stereo unspecified)	82
CCOC(=O)CCN1C(=O)/C(=C\c2cccs2)SC1=S	99
NC(=O)C1CCN(CCC(=O)Nc2ccccc2)CC1	104
C=CCSc1nc(N)c2c(C)c(C)sc2n1	100
O=c1[nH]c(-c2ccsc2)nc2sc3c(c12)CCC3	97
CCOc1ccc(C2=C(CN(C)C)C(c3ccc(F)cc3)c3ccccc3O2)cc1 (stereo unspecified)	100

Molecules above that contain an NH in an aromatic ring (20):
SMILES	VACV E9 pol inh
FC(F)=C(F)CCSc1ncn[nH]1	108
Fc1ccc2[nH]cc(CCCN3CCN(c4nc5cc(Cl)ccc5s4)CC3)c2c1	100
CCC1(C)OC(=O)N(CCc2c(C)[nH]c3ccccc23)C1(C)O (stereo unspecified)	99
Cc1nc2c(C(=O)NCCc3ccccc3Cl)c[nH]n2c(=O)c1Cl	101
C/C=C1\C2C=C(C)CC1(N)c1ccc(=O)[nH]c1C2 (stereo unspecified)	100
Cc1cccc2cc(C(c3nnnn3C(C)(C)C)N(Cc3ccccc3)Cc3ccco3)c(=O)[nH]c12 (stereo unspecified)	97
O=C(O)CCc1nc2ccccc2[nH]c1=O	99
COc1cccc2cc(C(=O)NCCc3c(C)[nH]c4c(C)cccc34)c(=O)oc12	101
Cc1ccc(-n2cc(-c3ccc4c(c3)OCO4)[nH]c2=S)c(C)c1	102
CN(C)CC(O)c1ccc2cc[nH]c2c1 (stereo unspecified)	101
CC(C)(C)c1ccc(-c2[nH]nc(NS(=O)(=O)c3ccccc3)c2Br)cc1	92
Oc1cccc(N=Cc2c[nH]c3ccc(Br)cc23)c1	84
CC1CCC(C(=O)NC(Cc2c[nH]c3ccccc23)C(=O)NCc2cccnc2)CC1 (stereo unspecified)	93
Cc1[nH]nc2nc(SCC(=O)NCCc3ccccc3)n(-c3ccccc3Cl)c(=N)c12	95
C=CCN(CC=C)S(=O)(=O)c1ccc(C(=O)Nc2ccccc2-c2nc3ccccc3[nH]2)cc1	99
O=C(O)c1ccc2[nH]c3c(c2c1)CCCC3	97
Cc1ccc(-c2[nH]nc3nc(C(=O)O)cc(-c4cccc5ccccc45)c23)cc1	91
CCCCC(=O)NCc1ccc2[nH]c(C)cc2c1	92
CCOC(=O)c1c[nH]c(=S)[nH]c1=O	96
O=c1[nH]c(-c2ccsc2)nc2sc3c(c12)CCC3	97

Not all compounds are listed; count on the stated rates, not on these rows.
